VDR inh: inhibitors of human vitamin D receptor. P11473. VDR-SRC2-3 peptide fluorescence polarization, 2 h. Potency, µM, for inactives: max response, negative = inhibition, usual class: inhibitors. 400,000 tested, 0.93% active. AID 504847; active = well fitted inhibition curve with a large enough effect; inconclusive = small, poorly fitted or top-dose-only effect, or another doubt; inactive = no such curve, though single readings can be large or run the other way; note: series mostly up to about 120 µM
Target sequence (P11473 whole entry, looked up): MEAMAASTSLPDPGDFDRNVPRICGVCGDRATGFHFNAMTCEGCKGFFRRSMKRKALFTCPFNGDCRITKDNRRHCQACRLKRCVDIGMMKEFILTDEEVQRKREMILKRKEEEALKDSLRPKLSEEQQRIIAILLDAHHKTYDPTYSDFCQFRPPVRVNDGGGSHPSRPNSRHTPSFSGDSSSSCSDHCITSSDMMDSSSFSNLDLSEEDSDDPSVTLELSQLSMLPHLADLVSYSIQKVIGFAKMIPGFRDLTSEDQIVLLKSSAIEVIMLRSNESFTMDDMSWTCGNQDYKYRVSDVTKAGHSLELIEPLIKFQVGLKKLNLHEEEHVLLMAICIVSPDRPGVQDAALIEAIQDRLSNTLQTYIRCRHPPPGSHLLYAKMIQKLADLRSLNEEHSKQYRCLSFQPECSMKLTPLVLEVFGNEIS
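Fluorescence polarization assay of small-molecule disruption of VDR binding to coregulator peptide SRC2-3. Compounds and controls pin-transferred, then read after 2 h incubation at ambient room temperature.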
* marks the source's active call; other numbers are inactive results; ? = inconclusive; [ ] = another dose, or the depositor's remark. % is set by controls: 0 for no effect and ±100 for the full control effect; potency is the fitted concentration of half-maximal effect. Some of the compounds tested; count on the stated rates, not on these rows.

VDR inh | structure
1.3% | Cc1nc(N2CCCC2)ncc1C(=O)N1CCN(c2ccc(Cl)cc2)CC1
-21.7% | O/N=C/c1cc(Br)ccc1OCc1ccccc1F
-14.6% | COc1ccc(NS(=O)(=O)c2ccc3nc(-c4ccccc4)[nH]c3c2)cc1
3.1% | O=C(Cc1ccc(Br)cc1)Nc1nc2ccccc2[nH]1
-6.1% | CNC(=S)N(Cc1ccco1)Cc1cc2cc(OC)c(OC)cc2[nH]c1=O
9.6% | CC(Nc1cccc2ccccc12)C(=O)N/N=C/c1ccccn1 (stereo not drawn)
-4.1% | CN(C)S(=O)(=O)N1CCN(CC(=O)Nc2cc(Cl)ccc2Cl)CC1
8.6% | CCOC(=O)C1CCN(C(=O)COC(=O)CNC(=O)c2ccc(C(C)(C)C)cc2)CC1
14.1% | Cc1ccc(S(=O)(=O)N(C)C)cc1NC(=S)N(C)C1CCN(C)CC1
-8.2% | CCCCCCSc1cccc(-c2nc3cc(C)ccn3c2NCc2ccccc2)c1
16.2% | COc1cc(S(=O)(=O)N2CCN(C(=O)c3ccco3)CC2)ccc1Cl
16.5% | CC(=O)C1=C(O)C(=O)N(CO)C1c1ccccc1F (stereo not drawn)
-5.9% | Cc1c(NC(=O)Nc2ccc(F)cc2F)c(=O)n(-c2ccccc2)n1C
2.2% | C=CS(=O)(=O)N(Cc1ccccc1)[C@H](CO)CC(C)C
-13.6% | O=C(O)c1[nH]nc2c1COc1ccccc1-2
-8.5% | CCOc1ccc(NC(=O)N2CCN(Cc3ccc4c(c3)OCO4)CC2)cc1
6.9% | CCOC(=O)c1cnn(-c2nc(SC)nc3sc4c(c23)CCC4)c1N
12.0% | COc1ccc(C2c3[nH]c4ccccc4c3C[C@H]3C(=O)N(c4ccccc4C(=O)NCCN4CCOCC4)C(=O)N23)cc1 (stereo partly drawn)
7.9% | CC(C)(C)NC(=O)C(OC(=O)c1cccs1)c1ccc(C#N)cc1 (stereo not drawn)
-18.0% | CCOC(=O)C1CCN(C(=O)Cn2c(=O)c3cccn3c3cccnc32)CC1
-2.0% | O=C1C=CCC(/C=C/c2ccccc2)O1 (stereo not drawn)
-19.5% | Cc1noc(C)c1CS(=O)(=O)Cc1ccc(Cl)cc1
6.0% | CN(c1ncc(C(F)(F)F)cc1Cl)n1cc(C(=O)O)c2ccccc2c1=O
9.4% | CC1CCN(S(=O)(=O)c2ccc(N3CCCCS3(=O)=O)cc2)CC1
-3.8% | Cn1ncc2c(Nc3ccccc3Br)ncnc21
5.4% | O=C(Cc1ccc(NC(=O)N2CCSc3ncccc32)cc1)NCCc1ccccc1
11.7% | COCC(=O)N1CCC2(CC1)CN(c1cccc(-c3ccccc3)c1)C2
12.8% | COc1cc2cc(CCCOC(=O)c3ccc4c(c3)OCO4)oc(=O)c2cc1OC
0.3% | CCc1nnc(NS(=O)(=O)c2ccc(NC(=O)c3cc(Cl)ccc3[N+](=O)[O-])cc2)s1
8.7% | O=C(NCCCn1ccnc1)c1ccncc1
-14.7% | Cc1cc(C)nc(NC(=O)Nc2ccccc2C(F)(F)F)n1
1.9% | CC1CCC(NC(=O)c2cccc(S(=O)(=O)N3CCN(c4ccccc4)CC3)c2)CC1 (stereo not drawn)
-11.0% | CC(=O)Nc1ccc(NCc2cccs2)cc1
-25.3% | CCN(CC)c1ccc(N2C(=O)C3CCCCC3C2=O)cc1[N+](=O)[O-] (stereo not drawn)
18.5% | CCOc1ccc(NC(=O)C(=O)c2cc(C)n(-c3cc(C)cc(C)c3)c2C)cc1
7.6% | Cc1ccc(C)c(S(=O)(=O)Nc2ccc(C(=O)N3CCCCC3)cc2)c1
5.5% | COc1ccccc1N1CCN(C2CCCN(C(=O)c3csc(C)n3)C2)CC1 (stereo not drawn)
3.5% | CCOC(=O)CC1C(=O)NCCN1S(=O)(=O)c1cccc(C(F)(F)F)c1 (stereo not drawn)
? | COc1ccc(OC)c(Nc2nnc(C)c(=O)[nH]2)c1
-0.8% | CCOC(=O)c1cc2sccc2n1CC(=O)OC(C)C
2.3% | O=C(NC(=S)Nc1ccccc1N1CCCCC1)c1ccc(-c2cccc([N+](=O)[O-])c2)o1
2.0% | CC(=O)Nc1ccc(S(=O)(=O)c2c(N)n(CCN3CCOCC3)c3nc4ccccc4nc23)cc1
-15.8% | O=C(CSCC(=O)NC1CC1)Nc1ccc2ccccc2c1
-5.0% | COc1ccc(CCc2nnc(CCC(=O)NCc3cc(C(C)C)no3)o2)cc1
-7.0% | CCC1(CC)NC(=O)N(CC(=O)Nc2sc3c(c2C(N)=O)CCC3)C1=O
-22.0% | N#Cc1c(N)n(Cc2ccccc2)c(=O)c2cc([N+](=O)[O-])ccc12
5.5% | N#Cc1ccccc1OCC(=O)NNC(=O)CNC(=O)c1ccc(Br)o1
16.1% | CCOC(=O)C1CCN(C(=O)Cn2ncc3c([nH]c4ccc(C)cc43)c2=O)CC1
2.7% | Cc1ccc2c(CC(=O)Nc3c(C(=O)Nc4cccc(Cl)c4)oc4ccccc34)coc2c1C
7.0% | O=C(CCS(=O)(=O)c1ccc(Br)cc1)Nc1ccc(Cl)cc1F
? | CCCCCC(=O)NC(=S)NNC(=O)CC
7.4% | O=C(COc1ccc(Cl)cc1)Nc1cc(-c2ccccc2)no1
-2.0% | O=C1c2nc3cc(-c4ccco4)[nH]n3c(=O)c2CN1Cc1ccccc1
39.8µM* | CN(CCCN1c2ccccc2CCc2ccccc21)CC(=O)c1ccc(Cl)cc1
? | O=C(NN=C(Cc1ccccc1)Cc1ccccc1)c1ccncc1
6.9% | Nc1c2c3c(sc2nc(=O)n1N)CCCC3
4.3% | COCCn1c(CN(C)Cc2ccccc2)nc2c1c(=O)n(C)c(=O)n2C
-13.5% | CC(C)(C)C1CCC2(CC1)CC(=O)c1ccccc1O2 (stereo not drawn)
-5.2% | COc1ccc(Cl)cc1NC(=O)CN(C)C(=O)c1ccc(N2CCCCC2)c([N+](=O)[O-])c1
6.8% | O=C(Cc1ccc(F)cc1)NCc1cccnc1

Sorted by value in VDR inh (low to high): some entries from above
VDR inh | structure
-13.5% | CC(C)(C)C1CCC2(CC1)CC(=O)c1ccccc1O2 (stereo not drawn)
-5.2% | COc1ccc(Cl)cc1NC(=O)CN(C)C(=O)c1ccc(N2CCCCC2)c([N+](=O)[O-])c1
-2.0% | O=C1c2nc3cc(-c4ccco4)[nH]n3c(=O)c2CN1Cc1ccccc1
2.7% | Cc1ccc2c(CC(=O)Nc3c(C(=O)Nc4cccc(Cl)c4)oc4ccccc34)coc2c1C
4.3% | COCCn1c(CN(C)Cc2ccccc2)nc2c1c(=O)n(C)c(=O)n2C

New compounds follow
VDR inh | structure
7.5% | Cc1ccc(S(=O)(=O)N2CCN(c3ccccc3)CC2)cc1
1.1% | CC(=O)N(C)c1ccc(NC(=O)C(c2ccccc2)c2ccccc2)cc1
-6.3% | CCOC(=O)c1c(NCc2ccccc2)n[nH]c1C
6.8% | Cn1cc(/C(Cc2ccccc2)=N\O)c2ccccc21
-14.8% | CN(CCCNC(=O)C1CCCN(S(=O)(=O)c2cnc[nH]2)C1)c1ccccc1 (stereo not drawn)
3.3% | Cc1ccc(NC(=O)c2nc3nccc(C)n3n2)c(C)c1
-8.0% | CCOC(=O)c1[nH]c(C)c(C(=O)c2ccc(C)cc2)c1C
-15.9% | Cc1nc(CCNC(=O)Cc2ccc(F)cc2)cs1
6.1% | N/C(CS(=O)(=O)c1ccccn1)=N\OC(=O)c1ccccc1Cl
-10.1% | CSc1nnc(CNS(=O)(=O)c2ccc(F)cc2)n1C
-5.2% | CCOc1ccc(NCC(=O)N/N=C/C=C/c2ccccc2)cc1
-11.1% | O=c1[nH]c(Nc2ccccc2)cc2cc(Br)ccc12
14.5% | COc1ccc(CNC(=O)C2=C(C)C(=O)OC23CCCCC3)cc1OC
-1.1% | Cc1cccc(OCC(=O)N2CCC(N3CCCCCC3)CC2)c1
0.5% | COC(=O)[C@@]1(Cc2ccc(OC)cc2)[C@H]2c3cc(C(=O)N(C)C)n(CCSCCO)c3C[C@H]2CN1C(=O)c1ccccc1
-1.5% | COC(=O)CNC(=O)C1Nc2ccc(OC(F)(F)F)cc2C2C=CCC12 (stereo not drawn)
20.2% | CC(=O)c1ccc(OCCCOc2cccc3cccnc23)cc1
13.3% | Cc1cccc(NS(=O)(=O)c2coc(C(N)=O)c2)c1C
-16.5% | Cc1ccc(CN2CCNC(=O)C2CC(=O)O)cc1 (stereo not drawn)
-14.0% | COc1cccc(Nc2ncc3ncc(=O)n(C[C@H]4CCCO4)c3n2)c1
1.1% | O=C(CCCN1C(=O)c2cccc3cccc(c23)C1=O)NCc1cccs1
-17.0% | COCCNc1ncnc2nc[nH]c12
-5.2% | NS(=O)(=O)c1cccc(NC(=O)/C=C/c2cccs2)c1
-21.9% | Cn1cnc([N+](=O)[O-])c1Sc1n[nH]c(N)n1
9.0% | O=C(C[n+]1ccccc1)Nc1ccccc1C(F)(F)F
-6.1% | C=CCSc1nsc(NC(=O)Nc2cccc(C(C)=O)c2)n1
17.9% | Nc1ccc2nc(CCCCCCCCc3nc4ccc(N)cc4[nH]3)[nH]c2c1
-8.5% | Cc1nc(NCc2cccnc2)c2c3c(sc2n1)CC(C)CC3 (stereo not drawn)
79.4µM* | CSc1nc(C)cc(SC(C(C)=O)C(=O)Nc2ccccc2)n1 (stereo not drawn)
? | CCC1(c2ccccc2)NC(=S)N(c2ccc(C)cc2)N1 (stereo not drawn)
-2.3% | COC(=O)C1=C(C)N=C2SC(C#N)=C(N)N2C1c1ccc(OC)cc1 (stereo not drawn)
-6.3% | COc1c(O)ccc2c1CN1CCc3cc4c(cc3C1C2)OCO4 (stereo not drawn)
-12.7% | Cc1ccc([C@H]2C(C(=O)O)=C[C@@H](C(C)(C)C)N2S(=O)(=O)c2ccc(C)cc2)cc1
-9.8% | CN(C)S(=O)(=O)c1cccc(NC(=S)N(CCC#N)Cc2cccnc2)c1
6.2% | O=C(OCc1ccccc1)C1=NNC2C(=O)N(c3ccc(Br)cc3)C(=O)C12 (stereo not drawn)
10.0% | COc1ccc(Br)cc1CN1CCSCC1
4.2% | CC(C(=O)N(C)CC(=O)Nc1ccccc1C(F)(F)F)N1C(=O)c2ccccc2C1=O (stereo not drawn)
15.9% | COc1ccc(CC(=O)N/N=C/c2cccs2)cc1OC
-22.1% | CSCCC(NC(=O)COc1ccccc1)C(=O)OCc1ccc([N+](=O)[O-])cc1 (stereo not drawn)
-2.2% | CC(C)OC(=O)c1cccc(C(=O)Oc2ccccc2)n1
79.4µM* | CCc1cc2c(=O)n(Cc3ccco3)c(SCc3c(C)noc3C)nc2s1
2.1% | NC(=O)C1(N2CCCCC2)CCN(CC(=O)Nc2ccccc2-c2ccccc2)CC1
-3.2% | NC(=O)C1CCN(C2=C(NS(=O)(=O)c3ccccc3)C(=O)c3ccccc3C2=O)CC1
13.0% | CC(NC(=O)Oc1cccc2ccccc12)c1ccccc1 (stereo not drawn)
5.0% | COc1cc(C2NC(=O)NC(C)=C2C(=O)OC2CCCC(C)C2)ccc1O (stereo not drawn)
-12.2% | Cc1cc(NCCCOC(C)C)n2c(nc3ccccc32)c1C#N
? | Cc1cc(C)n2nc(C(=O)Nc3ccc4c(c3)CCC4)nc2n1
15.6% | CCN(CC)CCCSc1nc2ccccc2s1
2.5% | Cc1ccc(NC(=O)C2CCCN(C(=O)c3cnn(-c4ccccc4)c3-n3cccc3)C2)cc1 (stereo not drawn)
2.6% | CC(C)CC(=O)Nc1ccc(-c2nnn(CC(=O)NCc3ccco3)n2)cc1
0.5% | CC(=O)Nc1ccc(N=Nc2c(C)[nH]n(C(N)=S)c2=O)cc1
3.5% | Nn1c(SCC(=O)Nc2ccc(F)cc2)nnc1-c1ccccn1
9.6% | Cc1occc1-c1nnc(SCc2nc3ccccc3c(=O)n2CC#N)n1C
0.5% | CN(c1ccccc1)S(=O)(=O)c1cccc(NC(=O)Cc2ccc(Cl)cc2)c1
4.4% | Cc1cc(O)c(C(C)C)cc1N=Nc1ccccc1C(=O)O
30.1%[activator] | O=C(N/N=C/c1c(Cl)cccc1Cl)c1cccc(F)c1
-6.7% | CCCN1CCN(CC2=C(C(=O)OCC)C(c3cccc(OC)c3OC)NC(=O)N2)CC1 (stereo not drawn)
14.2% | COc1ccc(C=O)cc1OC(=O)N1CCOCC1
0.0% | CC(=O)N1CCC(N(CCN2CCOCC2)C(=S)Nc2cc(C)cc(C)c2)CC1
6.6% | CCCc1ccc2oc(C(=O)N3CCC[C@H]3CO)c(C)c2c1

An excerpt of these results, bar-delimited.
SMILES | VDR inh
O=C1C=CCC(/C=C/c2ccccc2)O1 (stereo not drawn) | -2.0%
Cc1noc(C)c1CS(=O)(=O)Cc1ccc(Cl)cc1 | -19.5%
CN(c1ncc(C(F)(F)F)cc1Cl)n1cc(C(=O)O)c2ccccc2c1=O | 6.0%
CC1CCN(S(=O)(=O)c2ccc(N3CCCCS3(=O)=O)cc2)CC1 | 9.4%
Cn1ncc2c(Nc3ccccc3Br)ncnc21 | -3.8%
O=C(Cc1ccc(NC(=O)N2CCSc3ncccc32)cc1)NCCc1ccccc1 | 5.4%
COCC(=O)N1CCC2(CC1)CN(c1cccc(-c3ccccc3)c1)C2 | 11.7%

Next structures:
VDR inh | structure
11.4% | C=C(C)C1Cc2nc(N)nc(C)c2C1 (stereo not drawn)
-17.9% | CC1(C)C2CCC1(C)C(OCCNCCOC(=O)Nc1ccccc1)C2 (stereo not drawn)
3.6% | Cc1ccc(C(=O)N2CCCC(CCC(=O)NCc3ccc(F)c(F)c3)C2)cn1 (stereo not drawn)
-9.4% | CCCC1CC(CSc2ncn[nH]2)OC1=O (stereo not drawn)
0.4% | COCCNC(=O)c1cc(Br)ccc1Cl
-2.4% | CC(C)C(=O)NC(=S)Nc1ccc(S(=O)(=O)Nc2ccccc2)cc1
-17.2% | O=C(N/N=C/c1ccc(OCCCF)cc1)c1cc(OCC(F)(F)F)ccc1OCC(F)(F)F
7.1% | COc1ccc(OC)c(/C=N/NC(=O)c2cc3c(OC)cccc3[nH]2)c1
2.2% | CN(C)c1ccc(C=Cc2cnccn2)cc1
10.7% | CCn1c(CCNC(=O)c2ccc(Cl)cc2)n[nH]c1=S

Screening results as filed in PubChem BioAssay.
